# From PubChem
# Mtb growth: M. tuberculosis H37Rv growth inhibitors, H37Rv strain (AID 1626); M. tuberculosis H37Rv growth inhibition; higher % means a stronger effect; inhibition, % at 10 µM, or IC50 in µM where a hit was titrated; 220,000 compounds, 0.95% hits;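 active means confirmed in a dose series; inconclusive means inhibition above 80% but not taken into the dose series; inactive means below 80% or under 30% at every dose of the series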;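 further: bacteria incubated seven days before Alamar blue readout; 0% = bacteria only wells and 100% = bacteria with antibiotic wells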
# RecA splice inh: inhibitors of M. tuberculosis RecA intein splicing; inhibition, %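 (about 9 µM by stock and volumes)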; AID 2221; cell-free RecA intein splicing, fluorescence; 290,000 compounds, 0.75% hits; in the data active means inhibition above about 30%; inconclusive means no clear call, values can overlap the other calls;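 further: 0% = vehicle wells and 100% = reference inhibitor control wells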
# Target sequence (P9WHJ3 whole entry, looked up, canonical isoform): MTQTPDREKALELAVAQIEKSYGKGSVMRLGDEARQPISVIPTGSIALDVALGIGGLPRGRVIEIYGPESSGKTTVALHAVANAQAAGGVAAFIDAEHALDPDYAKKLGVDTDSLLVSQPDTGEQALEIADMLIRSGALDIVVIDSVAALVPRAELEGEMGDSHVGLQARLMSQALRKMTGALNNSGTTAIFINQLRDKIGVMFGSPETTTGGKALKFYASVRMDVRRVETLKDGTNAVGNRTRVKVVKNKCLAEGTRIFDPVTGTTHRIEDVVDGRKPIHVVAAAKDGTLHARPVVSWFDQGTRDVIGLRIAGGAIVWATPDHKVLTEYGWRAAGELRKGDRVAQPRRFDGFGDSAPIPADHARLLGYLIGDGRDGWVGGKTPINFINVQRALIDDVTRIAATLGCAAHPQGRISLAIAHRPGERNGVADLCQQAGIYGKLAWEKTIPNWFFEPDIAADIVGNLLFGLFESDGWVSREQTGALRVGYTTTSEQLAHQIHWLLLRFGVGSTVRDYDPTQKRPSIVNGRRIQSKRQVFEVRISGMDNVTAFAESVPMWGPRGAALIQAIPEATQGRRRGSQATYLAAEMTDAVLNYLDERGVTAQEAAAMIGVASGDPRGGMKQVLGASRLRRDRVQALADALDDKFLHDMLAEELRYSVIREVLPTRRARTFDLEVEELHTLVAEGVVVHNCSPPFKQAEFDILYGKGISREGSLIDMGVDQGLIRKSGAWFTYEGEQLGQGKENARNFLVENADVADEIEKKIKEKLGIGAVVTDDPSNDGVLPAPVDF
# YopH PTP inh: inhibitors of Yersinia enterocolitica YopH tyrosine phosphatase | fluorescence Ex485/Em525 | inhibition, %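 (about 10 µM by stock and volumes)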 | 140,000 compounds, 0.16% hits | AID 898;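 active means inhibition of 50% or more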;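 further: controls were vehicle for no effect and minimum signal wells for full effect; inactives centre near -20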
# Mtb bLac sens: beta-lactam sensitization of Mtb H37Rv; inhibition, % at 25 µM; 330,000 compounds, 0.27% hits; M. tuberculosis H37Rv growth with meropenem, percent inhibition; hits of this screen are not shown here;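 active means about 74% or more and at least 40 points above the plate without the antibiotic, then above 30% in a dose series; inconclusive means first-round hits that could not be retested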;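 further: growth measured after seven days incubation then overnight dye step; 0% = bacteria only wells and 100% = bacteria with antibiotic; twin plates without the antibiotic show which effects depend on it; some results filed as inactive read as strong as hits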
# Arbovirus inh: antivirals against arbovirus infection; arbovirus infection cell-based antiviral screen; inhibition, % at 10 µM; 200,000 compounds, 0.37% hits; AID 1251;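 active means inhibition from about 30%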;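 further: bluetongue infection of BSR cells; cell survival read as ATP light after 72 h; 0% = infected wells without compound and 100% = uninfected wells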
# The depositor's hits bear a star; ? = inconclusive; . = no result given; & = joins results of further samples. A portion of the library; count on the stated rates, not on these rows.
mol | Mtb growth | RecA splice inh | YopH PTP inh | Mtb bLac sens | Arbovirus inh
C[C@@H]1C[C@H]2[C@@H]3C[C@H](F)C4=CC(=O)C(Cl)=C[C@]4(C)[C@@]3(F)[C@@H](O)C[C@]2(C)[C@@]1(O)C(=O)CO | 7%&1% | -1.0 | . | -4 | 26
CCCCOC(=O)c1ccc(N)cc1 | 78% | 5.0 | -36 | 4 | -35
CN(C)CCC[C@@]1(c2ccc(F)cc2)OCc2cc(C#N)ccc21 | -14% | 1.1 | . | -6 | .
CCOc1ccc(NC(=S)N2CCC(C(O)(c3ccccc3)c3ccccc3)CC2)cc1 | 0% | 2.6 | -5 | 1 | 7
O=C(O)CCCCCCCC(=O)O | -12% | -1.3 | -57 | -2 | 6
O=C(NCCN1CCOCC1)c1ccc(Cl)cc1 | -10% | -0.8 | -45 | -3 | -1
CN1CCC(=C2c3ccccc3CC(=O)c3sccc32)CC1 | -15%&-1% | -3.8 | -33 | 0&3 | -10&-1
CN1CCN(c2c(F)cc3c(=O)c(C(=O)O)cn4c3c2SCC4)CC1 | ? | -1.6&-3.4 | -35 | 100&100 | 2&4
Cc1oncc1C(=O)Nc1ccc(C(F)(F)F)cc1 | -14% | 1.0 | -24 | 2 | -8
CC(=O)O[C@@]12CO[C@@H]1C[C@H](O)[C@@]1(C)C(=O)[C@H](O)C3=C(C)[C@@H](OC(=O)[C@H](O)[C@@H](NC(=O)OC(C)(C)C)c4ccccc4)C[C@](O)([C@@H](OC(=O)c4ccccc4)[C@H]21)C3(C)C | 77%&69% | 3.5 | . | 94 | -1
CN(C)CCOC(=O)C(c1ccccc1)C1(O)CCCC1 (centres undefined) | -1% | 0.5 | -44 | -8 | 8
CCCN(CCC)C(=O)C(CCC(=O)O)NC(=O)c1ccccc1 (centres undefined) | -12% | -1.1 | -35 | -2&1 | 5

# Looked up by structure from the entries so far:
mol | Mtb growth | RecA splice inh | YopH PTP inh | Mtb bLac sens | Arbovirus inh
CCOc1ccc(NC(=S)N2CCC(C(O)(c3ccccc3)c3ccccc3)CC2)cc1 | 0% | 2.6 | -5 | 1 | 7
Cc1oncc1C(=O)Nc1ccc(C(F)(F)F)cc1 | -14% | 1.0 | -24 | 2 | -8

# (more compounds)
mol | Mtb growth | RecA splice inh | YopH PTP inh | Mtb bLac sens | Arbovirus inh
COc1cc(NC(=O)c2cc(C3CC3)on2)c(OC)cc1Cl | -6% | 1.4 | -5 | 2 | -5
COc1ccc(S(=O)(=O)Nc2nnc(CC(C)C)s2)cc1 | -1% | -4.3 | -54 | -7 | 3
CCC12CCCN3CCc4c(n(c5ccccc45)C(O)(C(=O)OC)C1)C32 (centres undefined) | -7% | -3.1 | . | -4 | .
OCC(O)CN1CCN(c2ccccc2)CC1 (centres undefined) | -4% | -1.1 | -15 | -3 | -1
COc1c(O)cc2c(c1O)[C@@H]1O[C@H](CO)[C@@H](O)[C@H](O)[C@H]1OC2=O | . | 0.4 | . | -3 | .
CCN(CC)CCOC(=O)C(c1ccccc1)c1ccccc1 | -6% | 1.2 | -39 | -11 | -4
CCN(CC)S(=O)(=O)c1ccc(C(=O)O)cc1 | . | -0.2 | . | 9 | .
C/C=C(/C)C(=O)O[C@@H]1c2cc3c(c4c2[C@@]2(CO4)C(=O)C(OC)=C(OC)C=C2C[C@@H](C)[C@H]1C)OCO3 | -5% | 0.3 | . | -4 | .
COc1ccc(Sc2ccc(NC(=O)c3ccccc3Cl)cc2C#N)cc1 | 6% | 4.4 | -31 | -2 | -3
CC(C)(C(=O)c1cccnc1)c1cccnc1 | -2% | 11 | . | 2 | .
O=C1CCc2cc(OCCCCc3nnnn3C3CCCCC3)ccc2N1 | 17%&5%&7% | 2.0 | -2 | 3 | 2&-5&-1
CN(CCOc1ccc(NS(C)(=O)=O)cc1)CCc1ccc(NS(C)(=O)=O)cc1 | -2%&-2% | 2.9 | . | -10 | 3

# Additional structures follow:
Structure	Mtb growth	RecA splice inh	YopH PTP inh	Mtb bLac sens	Arbovirus inh
CCCc1cc(C(N)=S)ccn1	75%	-1.0	13	95	7
CC1(C)Oc2ccc(C#N)cc2[C@@H](N2CCCC2=O)[C@@H]1O	-3%	0.7	-29	-3	11
CN=C(N)NC(=O)Nc1c(C)cccc1C	65%	2.4	.	100	.
CCOC(=O)Nc1ccc2c(c1)N(C(=O)CCN1CCOCC1)c1ccccc1S2	6%	-3.5&-0.3	47	1	7
Cc1cc(O)c2c(c1)C(=O)c1cccc(O)c1C2=O	-4%	.	-6	.	-9
C#C[C@]1(O)CC[C@H]2[C@@H]3CCC4=CC(=O)CC[C@@H]4[C@H]3CC[C@@]21CC	9%&1%	-0.9	.	-1&-7	11&13
COc1cc2c(c(OC)c1OC)-c1c(cc(OC)c(OC)c1OC)C[C@H](C)[C@H](C)C2	-2%	7.3	.	12	.
COc1cc(C)nc(-n2nc(C)cc2OC)n1	-2%	-1.4	-29	-4	1
Nc1ncnc(Nc2ccccc2)n1	.	-1.6	.	-4	.
O=C(c1ccccc1)c1ccc2n1CCC2C(=O)O (centres undefined)	-3%	-3.4	-34	-5	-3
COc1cc(C(=O)NCCCCCC(=O)O)cc(OC)c1OC	-6%	0.1	-21	-3	3
Cc1ccsc1/C=C/C1=NCCCN1C	-1%	-1.7	-15	-2&-7	-4
Oc1cc2c(cc1O)C1c3ccc(O)c(O)c3OCC1(O)C2 (centres undefined)	3%	.	.	0	2

# Ordered by count of non-hydrogen atoms (lowest first): some entries from above
Structure	Mtb growth	RecA splice inh	YopH PTP inh	Mtb bLac sens	Arbovirus inh
O=C(O)CCCCCCCC(=O)O	-12%	-1.3	-57	-2	6
CCCCOC(=O)c1ccc(N)cc1	78%	5.0	-36	4	-35
Cc1ccsc1/C=C/C1=NCCCN1C	-1%	-1.7	-15	-2&-7	-4
CN=C(N)NC(=O)Nc1c(C)cccc1C	65%	2.4	.	100	.
CCN(CC)S(=O)(=O)c1ccc(C(=O)O)cc1	.	-0.2	.	9	.
Cc1oncc1C(=O)Nc1ccc(C(F)(F)F)cc1	-14%	1.0	-24	2	-8
CC1(C)Oc2ccc(C#N)cc2[C@@H](N2CCCC2=O)[C@@H]1O	-3%	0.7	-29	-3	11
CN1CCC(=C2c3ccccc3CC(=O)c3sccc32)CC1	-15%&-1%	-3.8	-33	0&3	-10&-1
COc1c(O)cc2c(c1O)[C@@H]1O[C@H](CO)[C@@H](O)[C@H](O)[C@H]1OC2=O	.	0.4	.	-3	.
CN(C)CCC[C@@]1(c2ccc(F)cc2)OCc2cc(C#N)ccc21	-14%	1.1	.	-6	.
CN1CCN(c2c(F)cc3c(=O)c(C(=O)O)cn4c3c2SCC4)CC1	?	-1.6&-3.4	-35	100&100	2&4
CCC12CCCN3CCc4c(n(c5ccccc45)C(O)(C(=O)OC)C1)C32 (centres undefined)	-7%	-3.1	.	-4	.
CN(CCOc1ccc(NS(C)(=O)=O)cc1)CCc1ccc(NS(C)(=O)=O)cc1	-2%&-2%	2.9	.	-10	3
CCOc1ccc(NC(=S)N2CCC(C(O)(c3ccccc3)c3ccccc3)CC2)cc1	0%	2.6	-5	1	7
C/C=C(/C)C(=O)O[C@@H]1c2cc3c(c4c2[C@@]2(CO4)C(=O)C(OC)=C(OC)C=C2C[C@@H](C)[C@H]1C)OCO3	-5%	0.3	.	-4	.
CC(=O)O[C@@]12CO[C@@H]1C[C@H](O)[C@@]1(C)C(=O)[C@H](O)C3=C(C)[C@@H](OC(=O)[C@H](O)[C@@H](NC(=O)OC(C)(C)C)c4ccccc4)C[C@](O)([C@@H](OC(=O)c4ccccc4)[C@H]21)C3(C)C	77%&69%	3.5	.	94	-1
